From PubChem BioAssay
gsp antag – gsp mutant antagonism | Potency, µM (highest dose often 76.9 µM), without a hit: top-dose activity change, negative = inhibition, hits mostly inhibitors | gsp-mutant cells, cAMP HTRF, 30 min; control for the full effect not named in the record | 0.4% of 340,000 active; active = falling curve of any shape with a large fitted effect; inconclusive = falling curve, mostly with a smaller effect; inactive = flat or rising curve; cell line not stated here;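 note: intracellular cAMP measured with PDE inhibitor Ro 20-1724 present during compound exposure; potency is the fitted concentration of half-maximal effect; % is set by controls: 0 for no effect and ±100 for the full control effect; nearly all actives have a fitted effect of over 65% in size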
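HTRF cAMP read-out (cAMP-d2 plus anti-cAMP antibody-K in lysis buffer, 30 min RT). Before lysis, cells are exposed to compounds with […] for 30 min at 37C in DPBS containing Ca/Mg, BSA and Tween 20.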
Menin-MLL FL inh – menin-MLL binding inhibition, fluorescein peptide; Fluorescence polarization, fluorescein-MLL peptide displacement from menin; 290,000 tested, under 10 active; FP activity change, % at 61.4 µM; inconclusive = falling polarisation curve, or a change in total fluorescence; inactive = total fluorescence flat and polarisation flat or rising; no compound was filed as active; the % refers to the polarisation; negative = inhibition;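 note: % of control where 0% means no effect; inhibitors lower the polarisation; unlabelled MLL peptide was the positive control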
Sfp inh – blocks B. subtilis Sfp PPTase activity; Potency, µM, inactives show max response, negative = inhibition, hits mostly inhibitors; 3.5% of 310,000 active; Biochemical Sfp PPTase activity, qHTS; active = well fitted inhibition curve with a large enough effect; inconclusive = small, poorly fitted or top-dose-only effect, or another doubt; inactive = no such curve, though single readings can be large or run the other way;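 note: the enzyme is Sfp with the accession as filed and its product quenches rhodamine fluorescence; potency is the fitted concentration of half-maximal effect; 0% = enzyme reaction without inhibitor and -100% = no enzyme wells; top concentration of the series not given in the record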
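Step 1, compound plus 15 nM Sfp-PPTase, 15 min, room temperature. Step 2, add rhodamine-CoA (5 uM) and BHQ-2-YbbR (12.5 uM). Step 3, read 525/598 nm fluorescence at 0 and 30 min.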
ClpP mod – qHTS Assay for Activators of ClpP | Potency, µM (series often up to 57.5 µM), for the others: at the top dose activity change, negative = active | 1.9% of 340,000 active | ATP-dependent Clp protease proteolytic subunit (Bacillus subtilis (strain 168)), P80244 | purified B. subtilis ClpP, FRET peptide cleavage, 20 min | AID 651965, 2013; active = well fitted falling curve with a large enough effect; inconclusive = small, poorly fitted or top-dose-only effect; inactive = no such curve, though single readings can be large or run the other way; note: potency is the fitted concentration of half-maximal effect; the source files actives as falling curves though it sought activators and does not explain the sign; nearly all actives have a fitted effect of over 65% in size; many hits overshoot -100%
Target sequence (P80244 whole entry, looked up): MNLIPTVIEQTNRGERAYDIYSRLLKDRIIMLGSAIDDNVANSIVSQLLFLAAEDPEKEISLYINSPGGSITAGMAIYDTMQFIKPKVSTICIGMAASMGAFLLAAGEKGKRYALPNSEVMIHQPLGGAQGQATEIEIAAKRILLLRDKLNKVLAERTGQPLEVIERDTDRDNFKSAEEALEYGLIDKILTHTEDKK
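Buffer: 100 mM Tris/HCl pH8, 100 mM KCl, 0.05% low protease BSA, 2.5% glycerol, 0.01% Tween-20. ClpP 10 microg/mL final; 20 min RT; delta FRET normalized to ADEP and DMSO controls.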
gsp ag – gsp mutant agonism; 0.13% of 340,000 active; AID 624287; Potency, µM (top dose mostly 76.9 µM), for the others: top-dose activation (cAMP increase), usual class: activators; gsp mutant cells, cAMP HTRF, 30 min; control for the full effect not named in the record; active = well fitted activation curve with a large enough effect; inconclusive = small, poorly fitted or top-dose-only effect, or another doubt; inactive = no such curve, though single readings can be large or run the other way; cell line not stated here;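 note: phosphodiesterase inhibitor Ro 20-1724 added with compounds to block cAMP breakdown; potency is the fitted concentration of half-maximal effect; nearly all actives have a fitted effect of over 60% in size; about a fifth of the inactives were tested at one dose only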
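Cells stably selected in G418 were plated at 2000/well, grown 16-24 hr, then given compounds in DMSO with the PDE inhibitor […] (300 uM solution added) for 30 min at 37C; cAMP was read by HTRF.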
TRPML1 inh – inhibitors of human TRPML1 channel. Q9GZU1. TRPML1-inducible cells, Ca2+ dye fluorescence, FDSS; active compounds read low; inhibition of EC80 agonist-evoked calcium signal. activity change, negative = inhibition, % (test concentration not listed). 0.02% of 390,000 active; in the data active means activity change below about -50%; inconclusive means about -30% to -50%; inactive means above about -30%;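 note: stimulus is agonist 54-4 at its EC80 concentration; % is set by controls: 0 for no effect and ±100 for the full control effect; compound concentration not given in the record; the text of the record puts the active cut at -80%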
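TRPML1-DL cells, Tet-induced overnight (~16 h, 37 °C) at 1,500 cells/well, were loaded with Ca8 no-wash dye plus quencher for 45-90 min at room temperature. Compounds were pinned during FDSS kinetic reading; agonist 54-4 at EC80 (4 uM final) then added.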
TRPV1 PAM – human TRPV1 potentiation; Q8NER1; TRPV1-expressing cells, Fluo-8 calcium influx, capsaicin EC20 potentiation; host cell line not named in the record; control for the full effect not named in the record; potentiation, % at 8.33 µM; 0.02% of 320,000 active; active means potentiation above 80%; inconclusive means 30% to 80%; inactive means below 30%; note: 0% is about no effect
Target sequence (Q8NER1 whole entry, looked up): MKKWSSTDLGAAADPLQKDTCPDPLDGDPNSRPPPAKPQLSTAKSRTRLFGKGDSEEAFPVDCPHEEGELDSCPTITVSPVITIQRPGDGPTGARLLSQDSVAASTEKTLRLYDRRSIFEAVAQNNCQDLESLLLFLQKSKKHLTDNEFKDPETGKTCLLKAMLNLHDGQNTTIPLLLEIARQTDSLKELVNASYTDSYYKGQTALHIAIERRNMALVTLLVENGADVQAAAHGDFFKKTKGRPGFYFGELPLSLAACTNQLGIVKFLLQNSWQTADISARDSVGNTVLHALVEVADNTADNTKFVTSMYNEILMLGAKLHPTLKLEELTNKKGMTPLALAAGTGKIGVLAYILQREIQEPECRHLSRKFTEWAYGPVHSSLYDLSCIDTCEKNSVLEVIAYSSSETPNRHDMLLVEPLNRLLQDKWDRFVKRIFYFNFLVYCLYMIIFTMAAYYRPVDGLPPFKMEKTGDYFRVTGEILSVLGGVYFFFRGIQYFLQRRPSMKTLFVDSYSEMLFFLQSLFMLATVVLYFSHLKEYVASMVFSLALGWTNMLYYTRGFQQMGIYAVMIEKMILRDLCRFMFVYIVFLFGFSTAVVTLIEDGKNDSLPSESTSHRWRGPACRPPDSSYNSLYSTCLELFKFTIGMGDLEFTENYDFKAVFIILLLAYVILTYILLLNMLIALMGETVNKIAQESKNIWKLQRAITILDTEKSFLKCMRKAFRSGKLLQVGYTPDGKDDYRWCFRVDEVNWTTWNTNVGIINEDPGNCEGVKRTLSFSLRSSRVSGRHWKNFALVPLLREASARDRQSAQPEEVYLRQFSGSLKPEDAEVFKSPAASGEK
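Fluo-8 calcium influx in TRPV1-expressing cells, kinetic read (ex 480/em 520 nm). Compound added and read 3 min for agonist activity, followed by capsaicin at EC20 final and 2 min further read for enhancement.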
Numbers without * were called inactive; ? = inconclusive; / = no result given; & = joins results of further samples; [ ] = dose if it differs, or a comment.

Preview:
SMILES | gsp antag | Menin-MLL FL inh | Sfp inh | ClpP mod | gsp ag | TRPML1 inh | TRPV1 PAM
Nc1nc(CSCc2ccccc2)nc(N2CCOCC2)n1 | 0.2% | 1.0 | 28.2µM* | 0.0% | -4.6% | -11.1 | 2.0
COc1ccccc1NC(=O)c1ccccc1C(=O)Nc1ccccc1OC | -6.4% | 4.6 | 7.7% | -2.9% | -8.2%[15.4 µM] | -2.8 | 0.7

The whole of this part, previewed entries included:
SMILES | gsp antag | Menin-MLL FL inh | Sfp inh | ClpP mod | gsp ag | TRPML1 inh | TRPV1 PAM
Nc1nc(CSCc2ccccc2)nc(N2CCOCC2)n1 | 0.2% | 1.0 | 28.2µM* | 0.0% | -4.6% | -11.1 | 2.0
COc1ccccc1NC(=O)c1ccccc1C(=O)Nc1ccccc1OC | -6.4% | 4.6 | 7.7% | -2.9% | -8.2%[15.4 µM] | -2.8 | 0.7
Cc1ccccc1NC(=O)NC1CCS(=O)(=O)C1 (stereo not drawn) | -15.5% | 4.5 | 19.1% | / | 20.2%[15.4 µM] | 48.7 | 4.4
C#CCOCCOCCOCCNc1nc(N2CCN(C(=O)[C@H](Cc3cc4ccccc4[nH]3)n3cc([C@@H](N)Cc4ccc(O)cc4)nn3)CC2)nc(N2CCN(C(=O)[C@H](Cc3cc4ccccc4[nH]3)n3cc([C@@H](N)CC(C)C)nn3)CC2)n1 | 5.9% | 14.7 | 56.2µM* | -15.1% | / | -6.1 | -25.0
CCOc1ccc(N(CC(=O)NCc2cccc(OC)c2)S(=O)(=O)c2c(C)noc2C)cc1 | -7.8% | 4.0 | 4.6% | -2.6% | 1.0% | -2.9 | -11.7
COc1ccc(OCC(O)Cn2c(=N)n(CCN3CCOCC3)c3ccccc32)cc1 (stereo not drawn) | 2.1% | 0.4 | 20.7% | -2.5% | -33.0% | -5.3 | 3.4
CCCN(CCC)CCNC(=O)C1c2ccccc2C(=O)N(CCOC)C1c1ccc(F)cc1 (stereo not drawn) | 15.5% | 0.7 | 5.9% | 0.5% | -45.5%[inhibitor] | 15.1 | 6.3
COc1ccc(CN2C(=O)c3cccnc3C2O)cc1 (stereo not drawn) | 22.0% | -0.5 | 7.8% | -0.8% | -8.8% | 4.7 | 0.4
O=C(COc1ccc(S(=O)(=O)N2CCCC2)cc1)N1CCN(c2ccccc2F)CC1 | -5.8% | 2.8 | 5.6% | / | 0.5% | 9.0 | 3.6
COc1ccc(/C=N/NC(=O)c2cccc(NC(=O)c3ccc(F)cc3)c2)c(C(=O)O)c1OC | 16.7% | 26.8 | -0.1% | / | -0.1% | 32.0 | 27.3
Cn1cccc1C(NC(=O)c1ccccc1)C(Cl)(Cl)Cl (stereo not drawn) | 5.0% | 5.3 | 9.2% | -0.5% | 3.1% | -4.5 | -4.0
Cc1ccc(CNC(=O)c2ccc(N3CCC4(CC3)CC(c3cccc(Br)c3)=NO4)c(NC(=O)c3ccco3)c2)cc1 | -9.2% | / | / | ? | -0.7% | -6.7 | -1.4
CC(C)NC(=O)C1CCN(C(=O)C(C(=O)c2ccccc2)n2cc(Cl)ccc2=O)CC1 (stereo not drawn) | 6.7% | -1.4 | 8.4% | -3.1% | 18.3% | 1.1 | -5.5
CCCC(NC(=O)CCc1c(C)c2cc3c(-c4ccccc4)coc3cc2oc1=O)C(=O)O (stereo not drawn) | -24.1% | -2.9 | 0.7% | -12.2% | -14.3% | 1.4 | 5.9
COc1ccc(CN(C)C(=O)c2[nH]c(C)c(C(C)=O)c2C)c(OC)c1OC | -3.1% | 0.7 | 13.5% | / | -0.2%[15.4 µM] | 1.4 | 27.2
Cc1ccc(C)c(CSc2nnc(C)c(=O)[nH]2)c1 | ? | 0.4 | 7.1% | / | 27.0%[15.4 µM] | -20.6 | -9.8
CN1CCN(C(=O)C2CCC(CNS(=O)(=O)c3cccc4cccnc34)CC2)CC1 (stereo not drawn) | 0.7% | 2.6 | -2.1% | -0.1% | -17.7% | 10.9 | -4.6
CS(=O)(=O)N1CCN=C1SCc1ccc(F)cc1 | 4.5% | / | 13.6% | 0.5% | -14.9% | 6.5 | ?
Cc1cccc(C(=O)O/N=C(\N)CS(=O)(=O)c2ccccc2)c1 | 16.0% | / | 5.3% | -0.2% | ? | -0.6 | 8.2
CC1CCC2(CC1)NC(=O)N(CC(=O)NCc1ccc(F)cc1)C2=O (stereo not drawn) | 6.0% | / | / | -0.3% | 3.6% | -2.8 | -0.4
CSc1nc2ccccc2n1Cc1c(Cl)cccc1Cl | 39.8µM* | -1.5 | -11.4% | 0.0% | -5.8% | -6.8 | 1.2
C#CCNc1nc(C)nc2c1nnn2Cc1ccccc1F | 13.4% | 2.6 | 8.5% | -0.3% | -1.8% | 2.5 | 7.2
COC(=O)c1sccc1NC(=O)C1C2C=CC(O2)C1C(=O)O (stereo not drawn) | -22.1% | -1.2 | 2.8% | -2.6% | 18.6% | -6.4 | 5.1
COc1ccc(CN2C(=O)C(CC(=O)NC3CCCC3)CC(C(=O)N(C(C)C)C(C)C)=C2C)cc1 (stereo not drawn) | / | / | / | 1.8% | -23.2% | -14.9 | /
COc1ccc(NC(=O)CCNS(=O)(=O)c2cccc3nonc23)cc1 | -3.2% | 3.0 | 15.3% | 1.3% | -12.2%[15.4 µM] | 5.0&1.3 | ?
(more compounds)
SMILES | gsp antag | Menin-MLL FL inh | Sfp inh | ClpP mod | gsp ag | TRPML1 inh | TRPV1 PAM
CCCCCC(=O)N1C[C@@H](n2cc(-c3ccc(F)cc3)nn2)[C@H](O)C[C@@H]1c1ccc(OC)cc1 | / | / | / | -5.1% | ? | -16.0 | /
CCOc1ccc2[nH]cc(S(=O)(=O)c3ccc(Cl)cc3)c(=O)c2c1 | -19.5% | 4.2 | -1.4% | -20.1% | 8.8% | -13.0 | 13.7
NC(N)=Nc1nc(-c2ccccc2)c2cc(Cl)ccc2n1 | 6.0% | -2.0 | ? | 4.3% | -0.8% | -0.9 | -17.6
O=c1c2ccccc2nnn1CSc1nc2cc(Cl)ccc2c(=O)n1Cc1ccco1 | 6.8% | / | / | 0.4% | 5.5% | 14.6 | /
O=S(=O)(CCN1CCOCC1)c1ccc(OC(F)(F)F)cc1 | 22.1% | 0.6 | 18.2% | -0.3% | ? | -11.1 | 2.3
O=C(CCS(=O)(=O)c1ccccc1)Nc1ccc(Cl)cn1 | 1.5% | -7.2 | 4.6% | / | -43.3%[inhibitor] | -15.0 | 0.0
CCN(C[C@H]1N[C@@](C)(C(=O)OC)[C@H]2C(=O)N(Cc3ccccc3)C(=O)[C@@H]12)C(=O)COC | 12.4% | / | / | -2.4% | / | 4.7 | /
Cc1cc(=O)oc2cc(OCC(=O)N3CCCC3)c(Cl)cc12 | 0.4% | / | / | 3.7% | 15.9% | 2.2 | 0.9
CC(=O)c1cccc(NC(=S)NC(=O)c2ccc(Cl)cc2)c1 | 6.3% | 5.0 | -25.7% | -1.9% | -30.1%[inhibitor] | 26.6 | -3.4
O=C(CSc1nnc(-c2ccco2)n1Cc1ccccc1)NCc1ccccc1 | 7.8% | -2.7 | 2.2% | -0.6% | -15.7% | -8.1 | -6.4
CN(C)CCCNc1ncnc2c1cnn2-c1ccccc1 | 12.8% | 5.0 | -12.3% | 4.2% | -32.2%[inhibitor] | 2.3 | 3.7
CCCCCCNC(=O)Nc1ccccc1 | -15.6% | 0.0 | 15.5% | -2.3% | 0.3% | 40.9 | -2.9
NC(=O)c1cc2ccc(O)cc2oc1=Nc1ccccc1 | -5.8% | ? | ? | 9.5% | -1.7% | -10.6 | -0.8
CCOc1ccc(-n2ccnc(SCC(=O)Nc3cccc(OC)c3)c2=O)cc1 | ? | / | / | / | -75.5%[15.4 µM] | -10.5 | 14.8
O=C(Nc1ccccc1Cl)NC1CCCCCCC1 | -13.6% | / | 6.3% | -0.4% | 3.8% | 3.0 | -12.7
CNC(=S)NNc1nc(N2CCOCC2)nc(N2CCOCC2)n1 | 7.3% | -4.5 | 2.24µM* | / | -36.3%[inhibitor] | 3.7 | 6.6
COc1ccc(C)cc1NC(=O)CCC(=O)Nc1nnc(C2CCCCC2)s1 | 9.5% | 2.2 | -6.1% | 2.2% | 4.4% | -2.7 | 0.8
O=C(N/N=C/c1c(O)ccc2ccccc12)c1ccc[n+](CCO)c1 | -14.4% | ? | 8.9% | / | -26.7% | 0.4 | -0.1
O=C1CC(c2ccccc2)CC(O)=C1C=NCc1ccc(Cl)cc1 (stereo not drawn) | 1.1% | -1.0 | 20.8% | 0.2% | -5.5% | -4.6 | -0.5
CC(=O)c1ccc(OCc2cc(C(=O)NCCN3CCCC(O)C3)no2)cc1 (stereo not drawn) | 0.5% | / | 12.2% | -2.5% | 18.3% | 16.0 | -12.5
COc1ccc(/C=C(\C#N)C(=O)NCc2cccnc2)cc1OC | -1.3% | -0.5 | 15.2% | / | 26.8% | -6.0 | ?
CCC1CN(C(=O)N2CCC(C(=O)NCc3ccc(C)o3)CC2)c2ccccc2O1 (stereo not drawn) | -11.6% | / | 3.5% | -1.0%&0.1% | 1.1% | -7.7&-1.0 | 14.2
O=C(Nc1ccccc1F)c1ccc(S(=O)(=O)NCC2CCCO2)cc1 (stereo not drawn) | -0.7% | 2.9 | 17.3% | 0.8% | -20.9% | -13.9 | -1.8
O=C(N/N=C/c1ccc([N+](=O)[O-])o1)c1sc2ccccc2c1Cl | -5.3% | 11.9 | 4.8% | 0.2% | ? | -3.0 | -9.2
CCOc1ccccc1C1CC(=O)Nc2cc(OC)c(OC)cc21 (stereo not drawn) | 10.4% | -4.2 | 10.7% | 2.3% | -19.3%[15.4 µM] | -1.3 | -4.7
CCn1cc(Br)c(C(=O)N2CCN(c3ccccc3)CC2)n1 | 7.7% | 2.0 | -14.6% | -0.1% | -19.4% | 2.4 | -9.9
CCOc1ccc(N2CC(C(=O)N3CCCC3)CC2=O)cc1 (stereo not drawn) | 1.8% | ? | 14.4% | / | -18.3% | 7.2 | -8.9
COCC(=O)Nc1ccc2nc3n(c(=O)c2c1)CCCCC3 | -0.2% | 0.2 | 13.8% | -12.8% | 22.0% | -12.3 | -0.6
Cc1cccc(NC(=S)NNc2ncc(C(F)(F)F)cc2Cl)c1 | -3.1% | 2.7 | 0.7% | -1.7% | -22.1% | 2.6 | -5.5
